Assay outcomes: PubChem BioAssay, National Center for Advancing Translational Sciences (NCATS)
Marburg entry = inhibitors of Marburg virus binding or entry into cells. Marburg virus pseudotype entry/binding inhibition, cell-based; control for the full effect not named in the record; many of its hits are not listed in these tables. Potency, µM (series often up to 49.2 µM), for inactives: at the highest dose activity change, negative = inhibition, usual class: inhibitors. hit rate 6.5% among 18,000. AID 720532; active means well fitted inhibition curve with a large enough effect; inconclusive means small, poorly fitted or top-dose-only effect; inactive means no such curve, though single readings can be large or run the other way; tested in HEK293 cells; note: luciferase read-out
LASV entry inh = blocks Lassa virus binding or cell entry | hit rate 4.1% among 18,000 | Potency, µM (top dose mostly 49.2 µM), for inactives: at the highest dose activity change, negative = inhibition, hits mostly inhibitors | AID 720533 | Lassa virus pseudotyped entry inhibition, cell-based qHTS; control for the full effect not named in the record; many of its hits are not listed in these tables; active = well fitted inhibition curve with a large enough effect; inconclusive = small, poorly fitted or top-dose-only effect; inactive = no such curve, though single readings can be large or run the other way; tested in HEK293 cells; note: luciferase read-out
An asterisk follows results filed as active; ? = inconclusive; · = not tested or not shown; & = joins results of further samples; [ ] = dose if it differs, or a comment. % is set by controls: 0 for no effect and ±100 for the full control effect; potency is the fitted concentration of half-maximal effect. Only part of the results is shown; rates above refer to the full screens.

Each structure is followed by: Marburg entry, LASV entry inh
[1] COc1cc2c(c(OC)c1)[C@H](C=Cc1ccccc1)[C@@H]([C@H](O)CO)OC2
  17%[8.59 µM], 1%[8.59 µM]
[2] COc1cc(C2c3cc4c(cc3C(O)[C@H]3COC(=O)C23)OCO4)cc(OC)c1OC (stereo not given in full)
  ?, ?
[3] CCn1nc(C)cc1C(=O)N1CCC2(CC1)c1ccccc1[C@@H](NC(=O)c1cccnc1)[C@@H]2O
  ?, 29%
[4] O=S1(=O)c2c(F)cccc2OC(COCc2ccccc2)CN1C1CCCC1 (stereo not given)
  ?, ?
[5] COc1ccc(-c2cc(=O)c3c(OC)c(OC)c(OC)c(OC)c3o2)cc1OC
  -36%, ?
[6] CS(=O)(=O)Nc1cccc(-c2cncnc2NCc2cccs2)c1
  -6%, 7%
[7] CC[C@@](N)(C(=O)O)c1ccc(C(=O)O)cc1
  2%, -4%
[8] COc1ccc(CCN(C)CCc2ccc(OC)c(OC)c2)cc1OC
  -29%&-23%&2%, -13%&-5%&-8%
[9] COc1cc(-c2oc3cc(O)cc(O)c3c(=O)c2O[C@@H]2O[C@H](CO)[C@@H](O)[C@H](O)[C@H]2O)ccc1O
  9%, -14%
[10] O=C(CCN1Cc2ccccc2OC(c2ccccc2F)C1)N1CCC(N2CCCC(O)C2)CC1 (stereo not given)
  ?, -7%
[11] Cc1ccc(C2CC(=O)Oc3cc(C)c(Br)c(C)c32)cc1 (stereo not given)
  -6%, -24%
[12] COc1cc(=O)n2c(c1C(=O)N(C)Cc1nonc1C)CCN(C(=O)c1cc(C)cc(C)c1)CC2
  26%, -4%
[13] c1ccc(CCc2nc(-c3ccccc3)oc2NC2CCCCC2)cc1
  -13%[8.59 µM], -13%[8.59 µM]
[14] CCC(=O)N[C@@H]1CCc2cccc(OC)c2C1
  10%, -11%
[15] CC(=O)O[C@H](C(=O)O[C@@H]1C[C@@H](CCC[C@H]2O[C@H](C(=O)OC(C)C)CC[C@@H]2C)O[C@@H](CC#N)C1)c1ccccc1
  2%, -3%
[16] CC1CCC2(OC1)OC1CC3C4CC[C@@H]5CC(O)CC[C@@]5(C)C4CC(=O)[C@]3(C)C1C2C (stereo not given in full)
  1%, 6%
[17] O=C1OCCN1C(=O)[C@H]1[C@H](c2ccccc2)C(c2ccccc2)=NN1c1ccc(Br)cc1
  -12%, -24%
[18] N=C(N)c1ccc(OCCCCCOc2ccc(C(=N)N)cc2)cc1
  ?, ?
[19] CCOc1ccc2nc(N3CCCC3C(=O)N3CCC(c4nc5ccccc5o4)CC3)nc(C)c2c1 (stereo not given)
  -19%, -9%
[20] Cc1c(O)ccc2c1OCO2
  ?, 10%[8.59 µM]
[21] CS(=O)(=O)Nc1cccc(-c2nc(NCCN3CCOCC3)c3ccccc3n2)c1
  -14%, -8%
[22] S=c1[nH]c2ccccc2s1
  8%, -2%
[23] COC(=O)[C@H]1[C@@H](c2ccccc2)NC(=O)O[C@@H]1C
  56%[activator][8.59 µM], 38%[8.59 µM]
[24] COC(=O)c1ccccc1-c1cc(C)cc2c1OC(CNC(=O)c1cnc(C)cn1)C2 (stereo not given)
  -9%, -1%
[25] COc1cc(CCN2C(=O)N[C@@H](c3cccc(C(F)(F)F)c3)C(C(C)=O)=C2C)cc(OC)c1OC
  -12%, -1%
[26] O=C(NCC1CC1)c1ccc(-c2cccc(C(=O)NC3CC3)c2)cc1
  36%[activator], 36%[activator]
[27] COC(=O)CCc1c(C)[nH]c(C(=O)OCc2ccccc2)c1C
  25%, ?
[28] O=C(NCC1Cc2cccc(-c3cnccn3)c2O1)c1ccc(F)c(Cl)c1 (stereo not given)
  11µM*, 2%
[29] O=C(O)c1ccccc1Nc1cc(Cl)ccc1C(=O)O
  7%, 2%
[30] COc1cc2c(cc1OC)Cc1cc(OC)c(OC)cc1Cc1cc(OC)c(OC)cc1C2
  2%, 6%

Profiles from above.
O=C(NCC1CC1)c1ccc(-c2cccc(C(=O)NC3CC3)c2)cc1 in the list: Marburg entry: 36%[activator]; LASV entry inh: 36%[activator]
COc1cc(=O)n2c(c1C(=O)N(C)Cc1nonc1C)CCN(C(=O)c1cc(C)cc(C)c1)CC2 in the list: Marburg entry: 26%; LASV entry inh: -4%

(further entries)
Each structure is followed by: Marburg entry, LASV entry inh
[31] COC(=O)C1=C(C(=O)OC)[C@@H]2N(C)c3ccccc3[C@@]23C[C@@H](C(=O)OC)N(C(=O)NCCBr)C3=N1
  ?, -1%[8.59 µM]
[32] O=S(=O)(O)c1cc(O)ccc1O
  -7%[17.8 µM], 8%[17.8 µM]
[33] CN1CCCC(CNC(=O)c2cnn(-c3ncc4c(n3)-c3ccccc3CC4)c2C2CC2)C1 (stereo not given)
  -23%, 2%
[34] O=C1OC2(c3cc(I)c(O)c(I)c3Oc3c2cc(I)c(O)c3I)c2c(Cl)c(Cl)c(Cl)c(Cl)c21
  -11%, -10%
[35] COc1cc(-c2cc(C)c3c(OC)ccc(OC)c3n2)cc2c1OCCN(C(=O)Cn1nc(C)cc1C)C2
  1%, -9%
[36] CC(C)C1C(=O)N(Cc2cn(CCC3OCCO3)nn2)CCS(=O)(=O)N1Cc1ccc(-c2ccccc2)cc1 (stereo not given)
  -15%, 12%
[37] COC(=O)[C@@H]1CC[C@H](C)[C@@H](c2ccc(C)cc2)N1C(=O)c1ccc(C=NOC[C@@H](O)[C@H]2O[C@@H]3OC(C)(C)O[C@H]3[C@@H]2O)cc1
  28%[8.59 µM], ·
[38] CCN(CC)CCOC(=O)c1cccnc1
  25%, -1%
[39] C[C@@H]1C(=O)O[C@H]2[C@H](O)[C@@]34[C@H]5CC(C(C)(C)C)[C@]36[C@H](OC(=O)[C@H]6O)O[C@]4(C(=O)O5)[C@@]12O (stereo not given in full)
  2%, 4%
[40] O=C1CCC=C1C(O)c1ccc(Cl)cc1 (stereo not given)
  -3%, 0%
[41] C=CCCCCCCCCCCC/C=C/C(O)COC(C)=O (stereo not given)
  ?, -14%
[42] CCc1nnc(NS(=O)(=O)c2ccc(N)cc2)s1
  21%, 4%
[43] COc1cc(=O)n2c(c1C(=O)NCc1ccco1)CCN(Cc1ccc(F)cc1Cl)CC2
  -6%, -22%
[44] CC(=O)c1c(O)c(C)c(O)c2c1OC1=CC(=O)C(C(C)=O)C(=O)C12C (stereo not given)
  3%, 0%
[45] COc1ccc2c(c1O)-c1c(OC)c(OC)cc3c1[C@H](C2)N(C)CC3
  -6%, 0%
[46] CC(=O)OCC(=O)C1CCC2C3CC=C4CC(O)CC[C@@]4(C)C3CC[C@]12C (stereo not given in full)
  -1%, 5%
[47] COc1ccccc1-c1ccc2ncnc(NCc3cccnc3)c2c1
  -16%, ?
[48] Cc1cc(=O)cc2oc3cc(N)c(-c4c(C)cc(O)cc4O)c(C)c3nc1-2
  -21%, -1%
[49] Cc1ccc([C@H]2C[C@@H](n3cc(-c4ccc(F)cc4)nn3)[C@H](O)CN2C(=O)C2CCCCC2)cc1
  ?, -13%
[50] CN(C)c1nc(-c2ccoc2)nc2ccccc12
  -9%, 14%
[51] O=C(NCCCCCCNC(=O)ON=C1CCCCC1)ON=C1CCCCC1
  3%&-6%&15%, -8%&-14%&3%
[52] CC(=O)N[C@@H](CC(C)C)C(=O)N[C@@H](CC(C)C)C(=O)N[C@H](C=O)CCCN=C(N)N
  0.11µM*, 11%
[53] CC(n1cc(C[C@H](N)C(=O)O)c2ccccc21)n1cc(C[C@H](N)C(=O)O)c2ccccc21
  -23%, -16%
[54] CN(CCc1ccc(Cl)c(Cl)c1)[C@H]1CCCC[C@H]1N1CCCC1
  6.3µM*, 18µM*
[55] O=C(O)c1cc(=O)c2ccccc2[nH]1
  -3%&7%&21%&6%, 2%&-5%&2%&-46%
[56] O=P1(O)Oc2c(-c3ccccc3)cc3ccccc3c2-c2c(c(-c3ccccc3)cc3ccccc23)O1
  -15%, -2%
[57] CC(C)=CCc1c2c(c3occ(-c4ccc(O)c(O)c4)c(=O)c3c1O)C=CC(C)(C)O2
  ?, ?
[58] O=C1/C(=C\c2ccc(O)c(O)c2)Oc2cc(O)ccc21
  10%, 2%
[59] CC(=O)Nc1ccc(/C=N/NC(N)=S)cc1
  5%&2%, -11%&-27%
[60] CCCCN(CCCC)Cc1cc(=O)oc2ccc3ccccc3c12
  ?, 10%

Of the compounds above, these contain two or more sulfur atoms.
Each structure is followed by: Marburg entry, LASV entry inh
[6] CS(=O)(=O)Nc1cccc(-c2cncnc2NCc2cccs2)c1
  -6%, 7%
[22] S=c1[nH]c2ccccc2s1
  8%, -2%
[42] CCc1nnc(NS(=O)(=O)c2ccc(N)cc2)s1
  21%, 4%

(more compounds)
Each structure is followed by: Marburg entry, LASV entry inh
[61] CC(C)(CCCCCCCCCCC(C)(C)CC(=O)O)CC(=O)O
  7%, -11%
[62] CCS(=O)(=O)c1ccc(OC)c(Nc2ncc(-c3cccc(C(C)=O)c3)o2)c1
  -27%, -31%
[63] NC(N)=NCC1COC2(CCCCC2)O1 (stereo not given)
  -5%[17.8 µM], -1%[17.8 µM]
[64] O=C(c1cccc(F)c1F)N1CCOc2ccc(CN3CCC(Oc4cccnc4)CC3)cc2C1
  ?, -8%
[65] NC(CCC(=O)NCS(=O)(=O)O)C(=O)O (stereo not given)
  16%, -4%
[66] O=c1cc(-c2ccccc2Cl)oc2c([N+](=O)[O-])ccc(O)c12
  -4%, 0%
[67] CCN1C(N(C)CCc2c[nH]c3ccccc23)=NC(c2cccc(C(F)(F)F)c2)C(C(=O)OC)=C1C (stereo not given)
  ?, -23%[8.59 µM]
[68] Cc1cccc(C(=O)NCc2nc(-c3ccccc3NC(=O)C3CCCO3)oc2C)c1 (stereo not given)
  ?, -3%
[69] Cc1ccc2[nH]c3nc(CCCn4ccnc4-c4ccccc4)nnc3c2c1
  4%[8.59 µM], 26%[8.59 µM]
[70] CC[C@H](C)[C@H](NC(=O)[C@H](CCC(=O)O)NC(=O)[C@H](C)NC(=O)[C@@H](NC(=O)[C@H](Cc1cnc[nH]1)NC(=O)[C@@H](NC(=O)[C@H](CCC(=O)O)NC(=O)[C@H](C)NC(=O)[C@@H](NC(=O)[C@H](CC(C)C)NC(=O)[C@H](Cc1cnc[nH]1)NC(=O)[C@H](Cc1cnc[nH]1)NC(=O)[C@H](CC(C)C)NC(=O)[C@H](Cc1c[nH]c2ccccc12)NC(=O)[C@H](Cc1ccccc1)NC(=O)[C@H](CCCNC(=N)N)NC(=O)[C@H](CCCNC(=N)N)NC(=O)[C@H](CCCNC(=N)N)NC(=O)[C@H](CC(C)C)NC(=O)[C@H](CC(=O)O)NC(=O)[C@H](CCC(N)=O)NC(=O)[C@@H](NC(=O)[C@H](CO)NC(=O)[C@H](CCCCN)NC(=O)CNC(=O)[C@H](CCCCN)NC(=O)[C@H](CC(=O)O)NC(=O)[C@H](Cc1cnc[nH]1)NC(=O)[C@H](CC(C)C)NC(=O)[C@H](CC(C)C)NC(=O)[C@H](CCC(N)=O)NC(=O)[C@@H](NC(=O)[C@H](CCC(=O)O)NC(=O)[C@H](CO)NC(=O)[C@@H](NC(=O)[C@H](C)N)C(C)C)[C@@H](C)CC)[C@@H](C)CC)[C@@H](C)CC)[C@@H](C)CC)[C@@H](C)O)C(=O)O
  -10%, -1%
[71] Cc1csc(SCC(=O)NCC2Cc3cc(-c4cncnc4)ccc3O2)n1 (stereo not given)
  -3%, -9%
[72] CC(C)=CCCC1(C)C=Cc2c(O)c3c(c(CC=C(C)C)c2O1)OC12C(=CC4CC1C(C)(C)OC2(C/C=C(/C)C(=O)O)C4=O)C3=O (stereo not given)
  2.8µM*, 5µM*
[73] NNc1nnc(NN)c2ccccc12
  34%[activator], 6%
[74] COC(=O)/C(C)=C\CC12OC(C)(C)C3CC(C=C4C(=O)c5c(OC)c6c(c(CC=C(C)C)c5OC431)OC(C)(CCC=C(C)C)C=C6)C2=O (stereo not given)
  2.8µM*, 4.5µM*
[75] Cc1c(-c2ccccc2)oc2c(C(=O)OCCN3CCCCC3)cccc2c1=O
  5%[17.8 µM], 6%[17.8 µM]
[76] O=c1cc(-c2ccc(O)c(O)c2)oc2ccccc12
  78%[activator], 33%[activator]
[77] Cn1ccc2c(-c3ccc(CO)cc3)cc3c(c21)C1CCC3C1 (stereo not given)
  ?, -23%
[78] Cc1cnc(CNc2nc(-c3ccc(C(=O)N(C)C)cc3)nc3ccccc23)cn1
  15%, 2%
[79] CCCCOC(OCCCC)C(O)CSc1ccc2ccccc2c1 (stereo not given)
  -28%[8.59 µM], 14%[8.59 µM]
[80] COC(=O)C(O)C1C(C)(C)C(OC(C)=O)C2CC3=C4CC(=O)OC(c5ccoc5)[C@]4(C)CCC3[C@@]1(C)C2=O (stereo not given in full)
  -24%, -17%
[81] N#Cc1c(NC(=O)CN2CCOCC2)sc2c1CCCC2
  0%, 27%
[82] CCC(C(=O)OCCN(CC)CC)c1ccccc1 (stereo not given)
  2%, 3%
[83] CC1=CC[C@@]23CCCN2C(=O)CCC[C@H]3C1
  -6%[107 µM], -13%[107 µM]
[84] Cc1ncc2c(c1CNC(=O)c1ccc3c(c1)OCO3)CCN(C(=O)c1cn3ccccc3n1)C2
  -6%, ?
[85] C=CCC(C)(O)c1cccc(C(F)(F)F)c1 (stereo not given)
  3%, -10%
[86] COc1ccc2c(c1OC)C(=O)O[C@H]2C1c2c(cc3c(c2OC)OCO3)CCN1C (stereo not given in full)
  6%&-27%, ?
[87] COc1cccc(CNC(=O)c2c(OC)cc(=O)n3c2CCN(C(=O)c2ccc(C)s2)CC3)c1
  1%, -11%
[88] CC(=O)N1CCN(Cc2cc(=O)oc3cc(C)c(C)cc23)CC1
  -11%, 16%
